Screening data deposited in PubChem by Fisher Drug Discovery Resource Center.
NPYLR7 agonist – activates Aedes aegypti NPYLR7 receptor; HEK293T NPYLR7/Galpha15, GCaMP6s calcium fluorescence; activation, % at 10 µM; 270,000 tested, 0.15% active; in the data active = activation above about 40%;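 note: 0% = vehicle and 100% = reference agonist at the receptor; some compounds past the cut are filed as inactive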
NPYLR7 agonist max-min – further read-out of NPYLR7 agonist, marked with its call; activation, %; measured here: Max-Min RFU normalised activation; some inactives read as strong as hits;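 span of the calcium signal over five minutes; 0% = vehicle and 100% = native peptide agonist; compound fluorescence can raise it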
Numbers without * were called inactive; & = joins results of further samples. These rows are one share of the data (hit frequency here may not be typical).

SMILES | NPYLR7 agonist | NPYLR7 agonist max-min
CN1CCC2(CC1)CCN(C(=O)C1CNC1)C2 | 6 | 7
Cc1ccnc(CC(C)N(C)Cc2c(Cl)cncc2Cl)c1 (stereo not given) | 0 | -5
NCCc1nc2ccccc2s1 | 3 | -3
Cc1ccsc1C(=O)C1CCCN(Cc2ccon2)C1 (stereo not given) | -4 | -9
O=c1c2cc(F)ccc2ncn1Cc1cn2ccccc2n1 | 20 | 7
O=C(CN1CN(c2ccccc2)C2(CCNCC2)C1=O)NCCc1ccc(Cl)cc1Cl | 0 | -6
Cc1ccccc1C(SCC(N)=O)c1ccccc1 (stereo not given) | 8 | 7
CC[C@H](N)C(=O)N1CCN(C)C2(CCN(C)CC2)C1 | 5 | -1
COC(=O)OCC12CCC(O1)C1(C)C(=O)OCC21 (stereo not given) | 9 | 10
CC(C)(C)OCC(O)CNC1CCCC1 (stereo not given) | 0 | -4
Fc1cc(Cl)ccc1C1NCCc2[nH]cnc21 (stereo not given) | -4 | -7
O=C(NCCc1ccccn1)C(C1CCCC1)N1CCN(C(=O)COc2ccccc2)CC1 (stereo not given) | -4 | 0
CCOP(OCC)C(Nc1ccccc1)c1ccccc1 (stereo not given) | -5 | -8
Cc1c(Cl)c(CN2C3CCC2CC(=O)NC3)nc2ccccc12 (stereo not given) | -2 | -5
Cc1ccnc(CC(C)N(C)Cc2ccccc2Cn2cccn2)c1 (stereo not given) | 1 | 3
CCOC(=O)[C@H]1CN(C(=O)Cc2ccc(OC)cc2)[C@]2(C)C(=O)Nc3ccccc3[C@H]12 | -2 | 12
Nc1ccc(Cl)c(Cl)c1 | 6 | 5
O=C(Nc1ccc(F)cc1F)N1CCCC1 | -2 | -6
COC(=O)C1C(=N)Oc2cc(C)[nH]c(=O)c2C12C(=O)N(Cc1ccccc1Cl)c1ccccc12 (stereo not given) | 0 | -5
CC(C)N(CCC(C(N)=O)(c1ccccc1)c1ccccn1)C(C)C (stereo not given) | 3&-7&1&-2&-5&-8 | -1&-12&-6&-6&-7&-12
CC(C)(C)C(=O)NC1CCSC1=O (stereo not given) | 0 | 5
CCOC(=O)[C@H]1CN(C(=O)N2CCOCC2)[C@]2(C)C(=O)N(C)c3ccccc3[C@H]12 | -2 | 9
CCCCn1c(=O)c(C(=O)Nc2nc3ccccc3s2)c(O)c2ccccc21 | -4 | -9
O=C1NC(=S)NC(=O)C1=Cc1ccccc1O | -7 | -13
O=C(NCCc1cnc[nH]1)c1ccccc1C1CCNC1 (stereo not given) | 19 | 3
COc1ccccc1N1CCNCC1 | 0&-14 | 28&-21
C=C1CC2C(CC[C@]3(C)C(=O)CCC23)[C@@]2(C)C=CC(=O)C=C12 (stereo not given in full) | 1 | -4
CNC(C)[C@@H]1CC[C@@H](N)[C@@H](OC2[C@@H](N)C[C@@H](N)[C@H](OC3OC[C@](C)(O)[C@H](NC)[C@H]3O)[C@H]2O)O1 (stereo not given in full) | -4&-5 | -1&-10
CN1CCN(c2ccc3ccccc3n2)CC1 | -2&2 | -7&-17
CC1CCN(C(=O)C(C2CCCC2)N2CCN(C(=O)Cc3cccs3)CC2)CC1 (stereo not given) | 9 | 21

Shown in CSV form: entries from further up.
SMILES,NPYLR7 agonist,NPYLR7 agonist max-min
Cc1c(Cl)c(CN2C3CCC2CC(=O)NC3)nc2ccccc12 (stereo not given),-2,-5
Cc1ccnc(CC(C)N(C)Cc2ccccc2Cn2cccn2)c1 (stereo not given),1,3
CCOC(=O)[C@H]1CN(C(=O)Cc2ccc(OC)cc2)[C@]2(C)C(=O)Nc3ccccc3[C@H]12,-2,12
Nc1ccc(Cl)c(Cl)c1,6,5
O=C(Nc1ccc(F)cc1F)N1CCCC1,-2,-6
COC(=O)C1C(=N)Oc2cc(C)[nH]c(=O)c2C12C(=O)N(Cc1ccccc1Cl)c1ccccc12 (stereo not given),0,-5
CC(C)N(CCC(C(N)=O)(c1ccccc1)c1ccccn1)C(C)C (stereo not given),3&-7&1&-2&-5&-8,-1&-12&-6&-6&-7&-12
CC(C)(C)C(=O)NC1CCSC1=O (stereo not given),0,5
CCOC(=O)[C@H]1CN(C(=O)N2CCOCC2)[C@]2(C)C(=O)N(C)c3ccccc3[C@H]12,-2,9
CCCCn1c(=O)c(C(=O)Nc2nc3ccccc3s2)c(O)c2ccccc21,-4,-9
O=C1NC(=S)NC(=O)C1=Cc1ccccc1O,-7,-13
O=C(NCCc1cnc[nH]1)c1ccccc1C1CCNC1 (stereo not given),19,3
COc1ccccc1N1CCNCC1,0&-14,28&-21
C=C1CC2C(CC[C@]3(C)C(=O)CCC23)[C@@]2(C)C=CC(=O)C=C12 (stereo not given in full),1,-4
CNC(C)[C@@H]1CC[C@@H](N)[C@@H](OC2[C@@H](N)C[C@@H](N)[C@H](OC3OC[C@](C)(O)[C@H](NC)[C@H]3O)[C@H]2O)O1 (stereo not given in full),-4&-5,-1&-10
CN1CCN(c2ccc3ccccc3n2)CC1,-2&2,-7&-17
CC1CCN(C(=O)C(C2CCCC2)N2CCN(C(=O)Cc3cccs3)CC2)CC1 (stereo not given),9,21

Continuation.
SMILES | NPYLR7 agonist | NPYLR7 agonist max-min
COc1ccc([C@@H]2CN(C(=O)c3ccc(N)nc3)[C@@H]3C4CCN(CC4)[C@@H]32)cc1 | 1 | -3
O=[N+]([O-])c1cc(O)c(O)c([N+](=O)[O-])c1 | -6&-6 | -9&-13
CCC(CC)c1cc([C@H]2CN3CC[C@H]2C[C@@H]3CN(CC2CC2)CC2CC2)nc(-c2ccncc2)n1 | 31 | 20
O=C(Nc1ccon1)c1cccn(Cc2cccc(C(F)(F)F)c2)c1=O | 17 | 6
C=C(C)[C@@H]1CCC(C)=C[C@H]1c1c(OC)cc(C)cc1OC | 4 | -1
N#CC1C(=N)Oc2c(c(=O)oc3ccccc23)C1c1cccc([N+](=O)[O-])c1 (stereo not given) | 3 | -2
CNc1ccccc1C(=O)O | -5 | -8
OC[C@@H]1[C@H]2CN(Cc3ccccn3)CCN2C[C@H]1c1ccccc1 | 2 | 14
CCCCN(C)C(=O)c1nn(Cc2ccc(C(C)(C)C)cc2)c2ccccc12 | 2 | 4
O=C(NC1CCC1)c1nn(Cc2cccc(Oc3ccccc3)c2)c2ccccc12 | 3 | 8
CN1CC2c3ccccc3OC(c3ccc(Cl)cc3)C2([N+](=O)[O-])O1 (stereo not given) | -3 | -3
COc1ccccc1C(=O)C1CCCN(CCC(=O)O)C1 (stereo not given) | 7 | 5
COc1ccc(OC)c(CC(=O)N2CCN(C)C(C(=O)O)C2)c1 (stereo not given) | 1 | -3
O=C(NC1CCCCC1)c1cc2ccccc2oc1=O | -1 | -4
CC1(C)Cc2cccc(OCC(=O)N3CCN(Cc4nnnn4-c4ccccc4)CC3)c2O1 | -3 | -4
CCCCOC(=O)N1CCC2(CCN(C)C2)CC1 | -2 | -3
CC(C)n1[nH]c(=O)c2c1NC(=O)CSC2c1ccc([N+](=O)[O-])cc1 (stereo not given) | -17 | -24
NC(=O)CN1CC2NC3CCC2(CC3)OC1=O (stereo not given) | 28 | 25
C=CCOc1ccc(/C=C2\C(=O)NC(=O)N(CC=C)C2=O)cc1OC | -9 | -15
CSP1(=S)N=C(N2CCN(C)CC2)C(C#N)=C2CCCN21 (stereo not given) | 2 | 38
N#CC(c1ccc(F)cc1)N1CCN(C(=O)COc2ccccc2F)CC1 (stereo not given) | -2 | -2
c1ccc(N2CCNCC2)c(-c2ccc3c(c2)OCO3)c1 | 13 | 11
COC(=O)c1ccccc1NC(=O)N1CCN(CCOC(c2ccccc2)c2cccc(C(F)(F)F)c2)CC1 (stereo not given) | 23 | 21
Cc1ccc2c(CC(CC(C)C)[N+](=O)[O-])c[nH]c2c1 (stereo not given) | -8 | -10
CC(C)c1ccc(CCNC(=O)CNc2ccc(C#N)c(Cl)c2)cc1 | 10 | 6
Cc1cc(C)c(C(Cl)Cl)c(C)c1C=C(C#N)C#N | -8 | -13
CC[C@H]1C2CC3[C@@H]4N(C)c5ccccc5[C@]45C[C@@H](C2C5O)N3[C@@H]1O (stereo not given in full) | -10 | -13
CC(C)c1nccc(CN2CCC3(CC2)C(=O)NCCN3C)n1 | 3 | 2
CCOC(=O)c1cc(C(O)(C(=O)OC)C(F)(F)F)c(N=CN(C)C)o1 (stereo not given) | -7 | -14
CC1CC2CCCCC2N1Cc1ccon1 (stereo not given) | 13 | 7
COC(=O)N1CCN(C(=O)Cc2ccc(Cl)c(Cl)c2)C(CN2CCCC2)C1 (stereo not given) | -5&-4 | -7&-19
N#CC1(c2ccccc2)CCN(C(=O)C2CCCCC2C(=O)NCc2cccs2)CC1 (stereo not given) | -6 | -7
CC(C)CN(Cc1cc(NC(=O)C(C)C)ccc1N(C)C1CCN(C)CC1)C(=O)c1ccc(F)cc1 | 23 | 30
CC(C)(C)c1ccc(COc2coc(CN3CCCN(C(=O)COc4c(F)c(F)c(F)c(F)c4F)CC3)cc2=O)cc1 | 3 | 6
CC(CN1CCN(Cc2cccc(Cl)c2)CC1)C(F)(F)F (stereo not given) | 11 | 10
O=C1NC(=S)NC(=O)C1=Cc1ccc(Br)cc1 | 2 | -4
NCC(CC(=O)O)c1ccc(Cl)cc1 (stereo not given) | -4&1&-6 | -9&-3&-11
C[N+](C)(C)CC#CCOC(=O)Nc1cccc(Cl)c1 | 8 | -8
COC(=O)C1=C(C)N(C)C(=O)C12c1ccccc1-c1oc(N)nc12 (stereo not given) | 13 | 4
O=c1cccc2n1CC1CC2CN(c2nc(Cl)nc(NCCN3CCOCC3)n2)C1 (stereo not given) | 10 | 9
O=C(NCc1cccc(-c2ncc(-c3ccc(F)cc3)[nH]2)c1)c1ccc(S(=O)(=O)F)cc1 | 35 | 33
C1CCC(c2nc(CN3CCNCC3)no2)CC1 | -24 | -20
CCOP(=O)(C(NC(=O)c1ccccc1)=C(Cl)Cl)c1ccccc1 (stereo not given) | 0 | 5
FC(F)(F)C1=NC(C(F)(F)F)=NP(N2CCCCC2)(N2CCCCC2)=N1 | 9 | 7
Cc1cccc(C(=O)Nc2ccc3[nH]cc(CCN(C)C4CCCCC4)c3c2)c1 | 9 | 1
COc1cc([C@@H]2c3cc4c(cc3[C@H](OC(C)=O)[C@H]3COC(=O)[C@@H]23)OCO4)cc(OC)c1OC | -6 | -14
Cc1cc(C=C2C(=O)NC(=O)NC2=O)c(C)n1-c1ccc(Br)cc1 | -9 | -19
O=C1OC2(c3cc(Br)c(O)cc3Oc3c2cc(Br)c(O)[c]3[Hg])c2ccccc21 (stereo not given) | 98* | 93*
CC(Cc1ccccc1F)NCCCC(=O)N(C)C (stereo not given) | -3 | 10
CCOP(=O)(OCC)C(NC(=O)C(F)(F)F)C(F)(F)F (stereo not given) | -5 | -8
O=C(C(=O)N1C[C@H](c2cccc(F)c2F)[C@@H]2[C@H]1C1CCN2CC1)c1ccco1 | 3 | 1
CCN(CCCl)Cc1ccccc1Br | 6 | -4
CN1/C(=C\C=C2C(=O)NC(=S)NC2=O)C(C)(C)c2ccccc21 | 16 | 16
CN(C)c1ccc(/C=C/C=C2C(=O)NC(=O)NC2=O)cc1 | 1 | -2
CCCNC(=O)N1CCC2(CCNCC2)C1 | 5 | 2
Cc1cc(C(C)(C)c2ccc(O)c(C)c2)ccc1O | 1 | 1
Cc1cccc(C(=O)N2CCSC23CCNCC3)c1 | 4 | 12
COc1cccc(C(N)Cc2cc(C)cc(C)c2)c1 (stereo not given) | 8 | 4
CC(=O)NNC1=NC(c2ccccc2)=NP(N(C)C)(N(C)C)=N1 | 5 | 2
O=c1[nH]c(=O)n(-c2ccc(Br)cc2)c(O)c1C=NC(CO)(CO)CO | -5 | -5

Following part
SMILES | NPYLR7 agonist | NPYLR7 agonist max-min
CCNP(=O)(NCC)NC(=O)c1cc(C)n(C2CC2)c1C | 5 | 1
CC(=O)O[C@@]12CO[C@@H]1C[C@H](O)[C@@]1(C)C(=O)[C@H](O)C3=C(C)[C@@H](O)C[C@@](O)([C@@H](OC(=O)c4ccccc4)[C@H]21)C3(C)C | -6 | -9
CN1CCN(Cc2csc3c2CCCC3)CC1 | -2 | -5
Fc1cc(F)c2nc(N3CCNCC3)sc2c1 | 2 | -1
COc1ccc(CC(=O)N2CCN(C(c3ccccc3)c3ccc(C)cc3)CC2)cc1 (stereo not given) | -5 | 4
Brc1ccc(C2CC(c3cccnc3)Nc3nnnn32)cc1 (stereo not given) | 4 | 2
COc1cc(C2NCc3ccc4c(c3-n3cccc32)OCO4)ccc1F (stereo not given) | -4 | -5
C1CCC2(C1)CNCCN2 | -4 | 4
CC(=O)N1CN(C(C)=O)CN(C(C)=O)C1 | -5 | -16
COC(=O)c1ccc(COC(CN2CCN(C(=O)Cc3ccccc3)CC2)c2ccc(Cl)cc2)cc1 (stereo not given) | -3 | 7
Cc1ccnc(CC(C)N(C)Cc2cc(=O)n3c4c(cccc24)CCC3)c1 (stereo not given) | 2 | -1
O=C(c1cnccn1)N1C[C@@H](c2cc(F)cc(F)c2)[C@@H]2[C@H]1C1CCN2CC1 | 0 | 5
CC(c1nc2ccccc2n1C(F)F)N1CC=C(c2ccc(O)cc2)CC1 (stereo not given) | -1 | 4
CCn1cc(CNC(C)Cc2ccc(C)cc2)cn1 (stereo not given) | 19 | 0
COc1ccc(C(=O)OC2C[C@H]3CC[C@H](C2)N3C)cc1OC (stereo not given in full) | -4 | -7
Cc1ccccc1CN1CCN(C(C)C)C(CCO)C1 (stereo not given) | 10 | -3
C1CCC(CN(C2CCCC2)C2CC2)OC1 (stereo not given) | 25 | 22
CC(C(=O)Nc1ccc(C#N)c(Cl)c1)N(C)Cc1cccs1 (stereo not given) | 3 | 0
COc1cc(CC(C)N)c(OC)cc1I (stereo not given) | -1 | -30
COc1ccc(C2N3CCCN2CC3)cc1 (stereo not given) | -3 | -3
Cc1cccc(-n2nc(C(C)(C)C)c3c2N(CC(=O)O)C(=O)CSC3c2ccc3c(c2)OCO3)c1C (stereo not given) | 3 | 8
FC(F)(F)c1cccc(C(OCCN2CCN(Cc3ccoc3)CC2)c2ccccc2)c1 (stereo not given) | -13 | -11
CC1(C)CC2(CCCN(CC#N)C2)CCS1 (stereo not given) | -3 | -6
C#CCN[C@H](C)Cc1ccccc1 | -5 | -10
